Assay outcomes deposited in PubChem BioAssay by ICCB-Longwood Screening Facility, Harvard Medical School.
GIV Gai3 FP: GIV-Galpha-i interaction inhibition | AID 1224905 | percent of control (FP), % (no concentration beside the values) | Galpha-i3/FITC-GIV peptide fluorescence polarization, 90 min; hits give low values; scaled: aluminum fluoride 0%, vehicle 100% | 0.42% of 210,000 active | P08753;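 active means replicate mean at 85% of control or lower, very high polarization wells dropped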;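 further: wells of about 15 µL received 100 nL stock; the first replicate is given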
Target sequence (P08753 whole entry, looked up): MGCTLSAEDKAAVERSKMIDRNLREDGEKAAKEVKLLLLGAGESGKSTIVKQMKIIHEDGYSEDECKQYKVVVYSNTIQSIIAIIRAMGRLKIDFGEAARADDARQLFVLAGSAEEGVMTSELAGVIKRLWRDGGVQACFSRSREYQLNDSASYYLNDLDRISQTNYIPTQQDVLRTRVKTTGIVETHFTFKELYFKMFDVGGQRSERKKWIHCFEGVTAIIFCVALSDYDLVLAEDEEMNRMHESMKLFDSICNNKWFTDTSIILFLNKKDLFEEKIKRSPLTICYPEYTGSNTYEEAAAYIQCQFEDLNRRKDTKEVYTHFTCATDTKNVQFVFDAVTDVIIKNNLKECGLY
Sa growth 42C: S. aureus growth inhibition | S. aureus RN4220 growth, OD600, 20 h, 42 °C; hits give low values | relative growth, % (test concentration not listed) | 0.53% of 170,000 active | AID 720641;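 active means growth at 42 °C up to 50% and 20 or more points under that at 30 °C, or under 10% at both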;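 further: 300 nL library stock went into each well; scaled to the means of positive and negative controls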
HCMV UL50-53 inh: cytomegalovirus nuclear egress complex inhibition | HTRF UL50-UL53 interaction, normalized percent inhibition | inhibition, % (test concentration not listed) | 0.15% of 190,000 active;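 active means both replicates at 50% or more, plus weaker picks with an unusually low signal ratio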;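 further: stock transfer was 100 nL into about 20 µL; 0% = negative control wells and 100% = wells with untagged competitor protein; inactives centre near -12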
Sa growth 42C second temp: further read-out of Sa growth 42C, marked with its call; relative growth, %; measured here: growth at 30 °C;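 optical density after 20 h as mean of two plates; 100% = untreated growth and lower means inhibition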
Active calls of the source: *; . = not tested or not shown; & = joins results of further samples.

(1) O=C(Cc1cccs1)NC(c1ccccc1)c1ccccc1
(2) Cc1ccc(NC(=O)CN2CCCC2c2cccn2C)cc1C (stereo not drawn)
(3) NC(=O)CSc1ccc(-c2ccc3c(c2)OCO3)nn1
(4) CCN(CC)CCn1c2ccccc2c2nc3cc(C(=O)O)ccc3nc21
(5) O=C(CN1CCN(c2ccc(Cl)cc2)CC1)Nc1ccc(F)cc1F
screen / no.	1	2	3	4	5
GIV Gai3 FP	.	.	101	.	106
Sa growth 42C	93	120	94	87	101
Sa growth 42C second temp	82	93	90	99	91
HCMV UL50-53 inh	-12	-17	-36	-34	.

(6) O=C(CN1C(=O)CC(c2ccccc2)=Nc2ccccc21)Nc1ccc2c(c1)OCCO2
(7) Cc1nc(C)c(C(=O)OCC(=O)N(C)C)s1
(8) CCC1(c2cccc(OC)c2)CCCCN(C)C1=O (stereo not drawn)
(9) O=C(NCc1csc(-c2cccs2)n1)C1CCCCC1
(10) O=C(CNc1ccccc1C(=O)NCc1ccco1)Nc1ccc(N2CCOCC2)cc1
screen / no.	6	7	8	9	10
GIV Gai3 FP	96	.	105	101	.
Sa growth 42C	.	87	120	106	81
Sa growth 42C second temp	.	89	86	96	86
HCMV UL50-53 inh	-31	-15	1	-5	-28

(11) O=S(=O)(c1cccc2nsnc12)N1CCNCC1
(12) Cc1c(N2C(=O)CSC2=S)c(=O)n(-c2ccccc2)n1C
(13) Cc1ccccc1-c1noc(N2CCC(C(=O)NCc3ccc4c(c3)OCO4)CC2)n1
(14) O=C(NCc1ccc2c(c1)OCO2)c1ccc(CN2C(=O)CCn3nc(-c4ccc(Cl)cc4)cc32)cc1
(15) Cc1ccc(NC(=O)N2CCN(c3cc(=O)n4nc(-c5ccccc5C)sc4n3)CC2)cc1Cl
screen / no.	11	12	13	14	15
GIV Gai3 FP	101	102	99	101	99
Sa growth 42C	92&106	100	.	.	.
Sa growth 42C second temp	86&103	93	.	.	.
HCMV UL50-53 inh	-120&-97	-37	5	-3	24

(16) NC(=O)c1cc(S(=O)(=O)NCc2ccccc2)cs1
(17) COc1ccc2c(C)nc(N=C(N)N)nc2c1
(18) O=C(Nc1ccc(-c2cn3c(n2)SCC3)cc1)c1ccco1
(19) Nc1ncn([C@@H]2O[C@H](CO)[C@@H](O)[C@H]2O)c(=O)n1
(20) Nc1ccc2oc(=O)ccc2c1
screen / no.	16	17	18	19	20
GIV Gai3 FP	105	103	125	104	.
Sa growth 42C	83	70	82	59	87
Sa growth 42C second temp	75	0	80	10	89
HCMV UL50-53 inh	.	-2	10	-44&-42&-32	-60

(21) O=C(CC12CC3CC(CC(C3)C1)C2)NC1CCN(Cc2ccccc2)CC1
(22) CCC(O)c1ccc(-c2ccccc2F)cc1 (stereo not drawn)
(23) O=S1(=O)CCC(N(CC2CCCO2)S(=O)(=O)c2cccs2)C1 (stereo not drawn)
(24) N#Cc1nc2c(C#N)c(N)n(CC3CCCO3)c2nc1C#N (stereo not drawn)
(25) O=c1ccc(-c2cccs2)n[nH]1
screen / no.	21	22	23	24	25
GIV Gai3 FP	107	101	.	102	102
Sa growth 42C	97	111	88	89	94
Sa growth 42C second temp	91	102	89	86	88
HCMV UL50-53 inh	25	-7	-26	-16	.

(26) CCOC(=O)c1ccc(NC(=O)NCCn2cnc3cc(C(=O)N(C)C)ccc32)cc1
(27) CCOC(=O)CSc1nc2cc(OC)c(OC)cc2c2nc(-c3ccccc3)nn12
(28) Cc1cc(C)c(NC(=O)C(C)n2c(=O)c(C(F)(F)F)nc3ccccc32)c(C)c1 (stereo not drawn)
(29) COc1cccc(CNC(=O)CC(c2ccc(F)cc2)N2Cc3ccccc3C2=O)c1 (stereo not drawn)
(30) COC(=O)COc1ccc(S(=O)(=O)Nc2ccc(C(F)(F)F)cc2)cc1
screen / no.	26	27	28	29	30
GIV Gai3 FP	104	100	102	100	100
Sa growth 42C	.	103	91	130	113
Sa growth 42C second temp	.	88	92	83	98
HCMV UL50-53 inh	7	-21	.	.	-9

(31) Cc1cc(C)c2c(N)c(C(=O)NC(C)c3ccccc3)sc2n1 (stereo not drawn)
(32) COc1cccc(NC(=O)C2CCN(S(=O)(=O)c3ccc4c(c3)NC(=O)CO4)CC2)c1
(33) CCc1cccc(N2C(=O)Cn3cccc3C2C(=O)NC2CCC(C)CC2)c1 (stereo not drawn)
(34) CCCc1cnc2c(c1SCC(=O)Nc1ccc(C)c(Cl)c1)c(=O)n(C)c(=O)n2C
(35) Cn1nc(C(=O)NC2CCCCCC2)ccc1=O
screen / no.	31	32	33	34	35
GIV Gai3 FP	.	106	105	99	.
Sa growth 42C	164	.	.	113	98
Sa growth 42C second temp	109	.	.	99	91
HCMV UL50-53 inh	2	22	-34	.	-14

(36) CCN(CC)S(=O)(=O)c1ccc(C(=O)N(c2ccc(Cl)cc2)C2C=CS(=O)(=O)C2)cc1 (stereo not drawn)
(37) Oc1c(C(c2ccc(C(F)(F)F)cc2)N2CCCC2)ccc2cccnc12 (stereo not drawn)
(38) CCc1nc2ccccc2n1CC(O)COc1cc(C)c(Cl)c(C)c1 (stereo not drawn)
(39) Cc1ccc2cc(CNCC(C)O)c(=O)[nH]c2c1C (stereo not drawn)
(40) C=CCn1c(C)cc(C(=O)COn2nnc3ccc(Cl)cc32)c1C
screen / no.	36	37	38	39	40
GIV Gai3 FP	96	.	110	104	.
Sa growth 42C	.	1.1*	.	79	96
Sa growth 42C second temp	.	0.4*	.	80	84
HCMV UL50-53 inh	-10	-12	-31	-24	-18

(41) Cc1nc(C)c(C(=O)NC2CCCC2)s1
(42) O=C(Nc1cccc(Cl)c1)c1cc(-c2ccc3c(c2)OCCO3)on1
(43) Clc1ccc(-c2ccc(CNCC3CCCO3)o2)c(Cl)c1 (stereo not drawn)
(44) Cc1ccc(-n2ncc3c(Nc4cccc(C(F)(F)F)c4)ncnc32)cc1C
(45) CCC(CC)c1nc(C(N)=O)c2[nH]c(=O)n(-c3ccc(OC)c(OC)c3)c2n1
screen / no.	41	42	43	44	45
GIV Gai3 FP	106	108	110	100	105
Sa growth 42C	.	106	.	98	109
Sa growth 42C second temp	.	84	.	89	91
HCMV UL50-53 inh	-7	23	-7	.	-17

A different layout for some results above.
Values run as follows: GIV Gai3 FP | Sa growth 42C | Sa growth 42C second temp | HCMV UL50-53 inh
#41 Cc1nc(C)c(C(=O)NC2CCCC2)s1
→ 106 | . | . | -7
#42 O=C(Nc1cccc(Cl)c1)c1cc(-c2ccc3c(c2)OCCO3)on1
→ 108 | 106 | 84 | 23
#44 Cc1ccc(-n2ncc3c(Nc4cccc(C(F)(F)F)c4)ncnc32)cc1C
→ 100 | 98 | 89 | .
#45 CCC(CC)c1nc(C(N)=O)c2[nH]c(=O)n(-c3ccc(OC)c(OC)c3)c2n1
→ 105 | 109 | 91 | -17
#43 Clc1ccc(-c2ccc(CNCC3CCCO3)o2)c(Cl)c1 (stereo not drawn)
→ 110 | . | . | -7

(cont.)
(46) Cc1ccc(Cl)cc1NC(=O)COC(=O)c1ccc(Br)o1
(47) Cc1nc2ncnn2c(NCc2ccc(F)cc2)c1C
(48) COc1cc(Cn2cnc3c(cnn3CCO)c2=O)cc(OC)c1
(49) COc1cc(N)c(Cl)cc1C(=O)OCC(=O)Nc1ccc(N2CCOCC2)cc1
(50) Cc1ccc(Cl)cc1NC(=O)Cn1c(=O)c2ccccc2n2nncc12
screen / no.	46	47	48	49	50
GIV Gai3 FP	.	102	109	.	106
Sa growth 42C	132	.	96	94	109
Sa growth 42C second temp	78	.	95	95	95
HCMV UL50-53 inh	-26	2	2	4	-23

Quoted at random: 2 records from the list.
(34) CCCc1cnc2c(c1SCC(=O)Nc1ccc(C)c(Cl)c1)c(=O)n(C)c(=O)n2C
(33) CCc1cccc(N2C(=O)Cn3cccc3C2C(=O)NC2CCC(C)CC2)c1 (stereo not drawn)
screen / no.	34	33
GIV Gai3 FP	99	105
Sa growth 42C	113	.
Sa growth 42C second temp	99	.
HCMV UL50-53 inh	.	-34

(continued)
(51) CCCC(CCC)c1nc2ccncc2[nH]1
(52) CCOc1ccc(C2C(C(=O)Nc3ccccc3)=C(C)Nc3nc(SCc4cc(C)ccc4C)nn32)cc1 (stereo not drawn)
(53) O=C(Nc1nc(-c2ccccc2)cs1)C12CC3CC(CC(C3)C1)C2
(54) O=C(NCc1ccc(F)cc1)c1cc2cccc3c2n1CCS3
(55) Cn1nc(C(N)=O)c2ccccc2c1=O
screen / no.	51	52	53	54	55
GIV Gai3 FP	.	103	114	105	.
Sa growth 42C	97	109	97	85	96
Sa growth 42C second temp	90	99	98	88	100
HCMV UL50-53 inh	-6	.	4	.	4

(56) CCOc1ccc(NC(=O)CSC2=Nc3ccccc3C3=NC(CC(=O)NCc4ccccc4OC)C(=O)N23)cc1 (stereo not drawn)
(57) O=C(CC(C(=O)O)C1CCCO1)Nc1ccc(F)cc1 (stereo not drawn)
(58) CCSc1ncc(Cl)c(C(=O)N(Cc2ccccc2Cl)C2CCS(=O)(=O)C2)n1 (stereo not drawn)
(59) O=C(/C=C/c1ccco1)N1CCN(C(c2ccccc2)c2ccccc2)CC1
(60) Cc1ccccc1/C=N/N1C(=O)c2ccc3c4c(ccc(c24)C1=O)CC3
screen / no.	56	57	58	59	60
GIV Gai3 FP	107	103	99&108	103	.
Sa growth 42C	108	122	110	79	107
Sa growth 42C second temp	99	99	93	97	74
HCMV UL50-53 inh	.	4	8&1	.	-14

(61) c1ccc(SCc2nnc3sc(-c4ccc5ccccc5n4)nn23)cc1
(62) COc1cc(NS(=O)(=O)c2cc(F)ccc2CN2C(=O)c3cccnc3C2=O)cc(OC)c1
(63) COc1cccc(CNC(=O)CSc2n[nH]c(-c3ccccc3Cl)n2)c1OC
(64) O=C(c1ccc(F)cc1)C1CC1C(=O)c1ccc(F)cc1 (stereo not drawn)
(65) CN(C)S(=O)(=O)c1ccc2c(c1)N(CC(=O)NCCN1CCCCC1)C(=O)C1CCCCN21 (stereo not drawn)
screen / no.	61	62	63	64	65
GIV Gai3 FP	113	101	110	103	99
Sa growth 42C	.	.	98	75	.
Sa growth 42C second temp	.	.	96	76	.
HCMV UL50-53 inh	-4	-18	.	-9	-19

(66) O=C(NCc1cccs1)c1cc2sccc2n1Cc1ccccc1
(67) CCCN1C(=O)CC(=O)N=C1SCC(=O)c1cc(C)n(-c2ccc(F)cc2)c1C
(68) O=C(NN1C(=O)C2C3C=CC(C3)C2C1=O)C1CC=CCC1 (stereo not drawn)
(69) CC(C)(C)CC(=O)Oc1ccc(-c2n[nH]nc2C#N)cc1
(70) CC(C)CNC(=O)c1c(-c2ccccc2)c(-c2ccccc2)nn(C)c1=O
screen / no.	66	67	68	69	70
GIV Gai3 FP	101	.	104	101	100
Sa growth 42C	103	72	99	56	100
Sa growth 42C second temp	80	89	97	18	88
HCMV UL50-53 inh	-1	-15	2	-4	-21

(71) CCn1c(=O)c2sccc2n2c(CCCC(=O)NCCc3ccccc3)nnc12
(72) COc1ccc2oc(=O)c(C(=O)O)cc2c1
(73) CC(=O)Nc1ccc(S(=O)(=O)NCC2CCC(C(=O)O)CC2)cc1 (stereo not drawn)
(74) OCCNCC(O)CN1c2ccccc2Sc2ccccc21 (stereo not drawn)
(75) CC(C)(C)n1cn[nH]c1=S
screen / no.	71	72	73	74	75
GIV Gai3 FP	107	103	109	106	103
Sa growth 42C	97	91	83	121	77
Sa growth 42C second temp	96	82	89	77	92
HCMV UL50-53 inh	.	-73	.	-9	1

(76) COc1ccc(C2=C(C)C(N3CCc4ccccc43)=NS2(=O)=O)cc1
(77) COc1ccccc1CNC(=O)CSc1ncc2c(n1)-c1ccc(Cl)cc1N(Cc1ccccc1)S2(=O)=O
(78) CCOc1ccc(NC(=O)Cn2c(=O)n(CCC(=O)NCCc3ccccc3)c(=O)c3ccccc32)cc1
(79) COc1ccccc1CNC(=O)COc1cc(C)c2c(-c3cccc(C)c3)nn(-c3ccccc3)c2n1
(80) Cc1onc(-c2c(Cl)cccc2Cl)c1NC(=O)O/N=C/c1ccccc1
screen / no.	76	77	78	79	80
GIV Gai3 FP	104	108	107	103	102
Sa growth 42C	109	101	89	.	96
Sa growth 42C second temp	102	94	87	.	89
HCMV UL50-53 inh	15	.	1	-1	-14

(81) COc1ccc(-c2cc(C(=O)OCC(=O)c3ccccc3)c3cccc(Cl)c3n2)cc1
(82) O=C(O)/C=C/c1ccc(OC(F)(F)C(F)C(F)(F)F)cc1 (stereo not drawn)
(83) CCN(CC)C(C(=O)Nc1ccc2c(c1)OCO2)c1ccccc1 (stereo not drawn)
(84) CC(=O)c1cnc2cc(C(=O)O)nn2c1C
(85) COc1cccc(N(C)C(=O)c2nn(Cc3ccccc3)c(=O)c3ccccc23)n1
(86) Cc1nc2nc(-c3ccccc3)nn2c(C)c1CC(=O)N1CCCCC1
screen / no.	81	82	83	84	85	86
GIV Gai3 FP	96	.	109	97	.	101
Sa growth 42C	113	127	90	.	97	.
Sa growth 42C second temp	89	102	94	.	103	.
HCMV UL50-53 inh	.	-19	-9	-20	7	-1
